# PV pol inh – inhibitors of poliovirus RNA polymerase binding and polymerization; P03300; poliovirus polymerase elongation, fluorescence polarization; stronger effect = lower value; % elongation, % (compound at 16.7 µg/mL); 0.66% of 150,000 active; AID 588519; in the data active = % elongation below about 90%; note: some results filed as inactive read as strong as hits
# Target sequence (P03300 1749-2209 limits assumed): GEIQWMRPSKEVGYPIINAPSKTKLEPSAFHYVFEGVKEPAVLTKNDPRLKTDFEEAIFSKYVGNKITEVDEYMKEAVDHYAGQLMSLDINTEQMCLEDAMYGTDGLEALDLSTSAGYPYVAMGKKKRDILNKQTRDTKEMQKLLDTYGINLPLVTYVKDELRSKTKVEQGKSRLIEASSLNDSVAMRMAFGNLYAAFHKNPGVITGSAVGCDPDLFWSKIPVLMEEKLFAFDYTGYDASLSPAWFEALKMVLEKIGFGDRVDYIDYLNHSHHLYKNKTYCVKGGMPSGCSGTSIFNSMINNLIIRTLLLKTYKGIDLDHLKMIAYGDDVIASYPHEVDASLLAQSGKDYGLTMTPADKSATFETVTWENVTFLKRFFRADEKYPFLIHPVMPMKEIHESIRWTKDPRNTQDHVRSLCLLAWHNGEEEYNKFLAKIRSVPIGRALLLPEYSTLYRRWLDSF
# PV pol inh intensity – second read-out of PV pol inh, no call of its own (marks repeat the call); % elongation; measured here: total intensity read-out; formula for this scale not given here;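 total fluorescence in place of polarization; lower means less elongation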
# An asterisk follows results filed as active. This is a subset. The share of hits here may be higher or lower than overall.
SMILES,PV pol inh,PV pol inh intensity
Cc1cccc(N(C)C(=O)CN2C(=O)COc3ccc(S(=O)(=O)N4CCCCCC4)cc32)c1,116,115
COc1ccc(NC(=O)C(Cc2ccccc2)NS(=O)(=O)c2ccc3c(c2)CCN3C(C)=O)cc1 (stereo not given),100,103
CCC1CN(C(=O)N2CCC(C(=O)N3CCN(c4ccccc4F)CC3)CC2)c2ccccc2O1 (stereo not given),105,102
CC(C)Cc1nc2cccnc2n1C1CCNCC1,104,99
COc1cc(NC(=O)C2=C(C)Nc3nnnn3C2c2ccc(SC)cc2)c(OC)cc1Cl (stereo not given),105,106
COc1ccccc1NC(=O)CSc1nc2ccccc2c(=O)n1CCC(=O)NC1CCCCC1,105,108
O=C(NCc1ccccc1)c1cc2sccc2n1Cc1ccc(Cl)cc1,107,111
CCc1ccc(NC(=O)c2sc3nc(-c4ccccc4)cn3c2C)cc1,110,106
O=C(NCCN1CCN(c2ccccc2)CC1)Nc1cccc(Br)c1,110,109
CC(C)c1nc2ccc(C(=O)NCc3ccccc3Br)cc2o1,108,114
COC(=O)c1ccccc1NC(=O)C1CCCN(c2ncnc3onc(C)c23)C1 (stereo not given),110,113
O=C(Nc1ccccc1Br)c1cc(S(=O)(=O)NC2CCCCC2)ccc1F,102,95
COc1ccc(C(=O)Nc2ccc(S(=O)(=O)N(Cc3ccccc3)c3ccccc3)cc2)cc1,106,112
CCSc1nc2c([nH]c3ccccc32)c(=O)n1CC,106,107
Cc1ccc(C(=O)Nc2ccc(-c3nc4ccccc4o3)cc2)cc1Cl,104,103
CCC(C)S(=O)(=O)c1oc(-c2ccc(F)cc2)nc1S(=O)(=O)c1ccc(F)cc1 (stereo not given),110,107
Cc1ccc(C)c(S(=O)(=O)c2cn(C)c3cc(F)c(F)cc3c2=O)c1,103,108
CS(=O)(=O)n1nc(-c2ccco2)nc1NCc1ccccc1Cl,102,109
CC(C)c1ccc(NC(=O)CSC2=Nc3ccccc3C3=NC(CCC(=O)NCc4cccs4)C(=O)N23)cc1 (stereo not given),101,106
CCSc1ncc(Cl)c(C(=O)N(Cc2ccc(C(C)(C)C)cc2)C2CCS(=O)(=O)C2)n1 (stereo not given),105,110
COc1cccc(C(=O)N2CCC(c3nc4ccccc4s3)CC2)c1,110,110
CCc1ccc(CSc2nc(-c3ccccc3F)nc3c2Cc2c(CO)cnc(C)c2O3)cc1,109,112
Cc1cccc(OCC(=O)N(Cc2sccc2C)C2CCS(=O)(=O)C2)c1 (stereo not given),117,118
COc1cccc(CNCCSc2nnnn2C)c1OCc1ccccc1,101,105
N#Cc1c(C(F)(F)F)cc(-c2cccs2)nc1SCC(=O)Nc1ccc(F)cc1,104,115
COc1cccc(NC(=O)CN2CCCN(S(=O)(=O)c3ccc(Br)cc3)CC2)c1,103,106
CCCCN(CC)CCNC(=O)CN1C(=O)COc2ccc(S(=O)(=O)N3CCOCC3)cc21,101,107
O=C(NCc1ccccc1F)c1cc2ccccn2n1,114,112
COc1ccccc1CNC(=O)Cc1c(C)c2cc3c(C)coc3c(C)c2oc1=O,111,107
COCCNC(=O)CN1C(=O)COc2ccc(S(=O)(=O)N3CCCCCC3)cc21,108,111
COc1ccc(C(CC(=O)NCc2ccccc2Cl)N2Cc3ccccc3C2=O)cc1OC (stereo not given),111,111
COc1ccc(Cn2cc(C(=O)c3ccc(Cl)cc3)c(=O)c3cc4c(cc32)OCO4)cc1,107,107
COc1ccc(-c2oc3ncn4nc(COc5c(C)cccc5C)nc4c3c2-c2ccc(OC)cc2)cc1,108,109
COc1cccc(NC(=O)CN(Cc2ccccc2)S(=O)(=O)c2ccc3nc(C)sc3c2)c1,109,93
O=C(c1ccc2c(c1)N(Cc1ccccc1)C(=O)c1ccccc1S2(=O)=O)N1CCN(c2ccccc2)CC1,107,105
O=C(NCC(c1ccc(Cl)cc1)N1CCCCC1)c1ccccc1 (stereo not given),103,103
CCOC(=O)CSc1nc2sc3c(c2c(=O)n1-c1ccccc1)CCC(C(C)(C)C)C3 (stereo not given),106,105
Cc1ccc(-n2ncc(C(=O)N3CCN(c4cccc(C)c4C)CC3)c2C2CCNCC2)c(C)c1,105,108
CCOC(=O)c1cc2c(=O)n3ccccc3nc2n(CC2CCCO2)c1=NC(=O)c1ccccc1Br (stereo not given),109,112
O=C(c1noc2c1CCCCC2)N1CCN(c2ccc(Cl)cc2)CC1,106,104
COc1cccc(N2CCN(C(=O)c3cccn3-c3nnc(N4CCCCC4)s3)CC2)c1,109,106
COc1cc(OC)c(N(C)C(=O)c2nn(C)c3c2CSc2ccccc2-3)cc1Cl,116,112
CC(=O)c1cccc(NC(=O)Nc2sc3nc4n(c(=O)c3c2C)CCC(C)CC4)c1 (stereo not given),103,108
Cc1ccc2oc(=O)c3cc(C(=O)N4CCN(c5ccccc5F)CC4)sc3c2c1,103,104
COc1ccc(C(=O)Nc2ccc3c(c2)CCCN3C(=O)c2cccs2)c(OC)c1,105,107
CCOc1ccc2nc(NC(=O)CS(=O)(=O)c3ccc(Cl)cc3)sc2c1,109,111
Cc1cccc(CCNC(=O)C2CCCN(S(=O)(=O)c3ccc4c(c3)oc(=O)n4C)C2)c1 (stereo not given),112,112
O=C(CN1C(=O)C2CCCCN2c2ccc(C(=O)N3CCCC3)cc21)NCc1ccccc1 (stereo not given),103,109
CCCn1c2ccccc2c2cnn(CC(=O)NCc3cc(OC)ccc3OC)c(=O)c21,101,102
Cc1ccc(N(CC(=O)Nc2cccc(Cl)c2)S(=O)(=O)c2cccs2)cc1,107,103
Cc1ccc(Cl)cc1NC(=O)Nc1nnc(N2CCCC(C)C2)s1 (stereo not given),113,110
O=C(COc1ccccc1F)Nc1nnc(SCc2cc(=O)c3ccccc3[nH]2)s1,106,107
CCC(Sc1nc2ncccc2o1)C(=O)Nc1cccc(C)c1 (stereo not given),105,103
O=C(Cn1c(=O)n(-c2ccc(Cl)cc2)c(=O)c2c3c(sc21)CCC3)c1ccccc1,106,107
Cc1ccc(NC(=O)/C=C\C(=O)N(c2ccc(C(C)C)cc2)C(C(=O)NCc2ccco2)c2ccc(F)cc2)cc1 (stereo not given),108,104
COc1ccc(-c2noc(N3CCN(c4ccc(C)cc4)C(C)C3)n2)cc1OC (stereo not given),106,111
CCN(C(=O)C1CCCN(S(=O)(=O)c2c(C)noc2/C=C/N(C)C)C1)c1cccc(C)c1 (stereo not given),96,104
CCOC(=O)c1ccc(N2CCN(c3cc(Cl)ccc3C)CC2)c(NC(=O)Nc2ccc(OCC)cc2)c1,109,108
COc1ccc(C)cc1NC(=O)c1cc(S(=O)(=O)NCCC2=CCCCC2)ccc1F,115,116
O=C(CSc1ccc(-c2cccs2)nn1)Nc1cccc(F)c1,105,104

# Continuation:
SMILES,PV pol inh,PV pol inh intensity
CCCCN(CC)C(=O)C1CCCN(c2ncnc3c2nc2n3CCCCC2)C1 (stereo not given),104,107
Cc1ccc2oc(C(=O)Nc3ccc(S(=O)(=O)N4CCCCCC4)cc3)cc(=O)c2c1,103,110
CCOc1ccc(-c2csc(/C(C#N)=C/c3ccc(Br)cc3)n2)cc1,102,110
CCc1ccc(NC(=O)CSc2ccnc(=O)[nH]2)cc1,108,104
Cn1c(=NC(=O)c2ccc3c(c2)OCCO3)sc2cc(S(C)(=O)=O)ccc21,106,114
Cc1c(NC(=O)c2cc(-c3ccccc3O)on2)c(=O)n(-c2ccccc2)n1C,108,122
COc1ccc(CNC(=O)C(=O)NCC(c2cccnc2)N2CCN(c3ccccc3)CC2)cc1 (stereo not given),111,112
COc1cc(NC(=O)CCS(=O)(=O)c2nc(-c3ccc4c(c3)OCO4)cc(C(F)(F)F)n2)cc(OC)c1OC,105,112
CCc1c(C)sc2c1CCN(C(=O)Nc1ccc(F)c(Cl)c1)C2c1ccc(F)cc1 (stereo not given),108,114
Cc1ccc(CNCc2c(C(=O)O)n(Cc3ccc(C)cc3)c3cc(C)ccc23)cc1,111,110
CCC(C)NC(=O)c1sc2nc(C)c(C(=O)Nc3ccc(C)cc3C)c(-c3ccc(Br)cc3)c2c1N (stereo not given),107,108
Cc1cccc(OCC(=O)Nc2ccccc2C(=O)OCc2cc(=O)n3nc(C)sc3n2)c1,105,104
CCN(CC)C(=O)CSc1nc2c(c(=O)n(C)c(=O)n2C)n1Cc1ccccc1,109,111
CC1CCN(c2cc3c(cc2F)c(=O)c(S(=O)(=O)c2cccc(Cl)c2)cn3Cc2ccccc2)CC1,105,106
CCN1c2ccccc2-c2nc(SCC(=O)Nc3cc(OC)cc(OC)c3)ncc2S1(=O)=O,100,102
Cc1ccccc1-c1nc(CN2C(=O)CN=C(c3ccccc3)c3ccccc32)c(C)o1,108,109
CCc1ccc(NCc2cc3cc(OC)c(OC)cc3n(CC(=O)Nc3cc(C)ccc3C)c2=O)cc1,108,112
CC(C)(C)OC(=O)N1CCC(c2c(C(=O)N3CCN(C(=O)c4ccco4)CC3)cnn2-c2cccc(F)c2)CC1,110,108
Cn1c(=O)c2sccc2n2c(CCC(=O)Nc3ccc(F)cc3)nnc12,102,106
O=C(Nc1nc2c(F)cc(F)cc2s1)c1ccc(S(=O)(=O)N2CCc3ccccc32)cc1,98,105
Cc1ccc2onc(CC(=O)N3CCN(c4cccc(Cl)c4)CC3)c2c1,104,97
COc1ccc(C2CC(=O)c3c([nH]c(C(=O)OCc4ccccc4)c3C)C2)cc1OC (stereo not given),108,111
CCCCN(CCCC)CCNC(=O)c1cn(C)c2ccc(S(=O)(=O)N3CCOCC3)cc2c1=O,101,108
COc1ccc(OC)c(CNC(=O)c2ccccc2NC(=O)c2nsc3ccccc23)c1,106,106
Cc1ccc(CNC(=O)c2ccc(Nc3nc4ccccc4n4nnnc34)cc2)cc1,105,101
Cc1cccc(NC(=O)Cn2c(=O)n(CC3CCC(C(=O)NCCc4ccccc4)CC3)c(=O)c3ccccc32)c1C (stereo not given),111,109
O=C(c1cn(CCOc2ccc(Cl)cc2)c2ccccc12)C1CCCCC1,104,109
Cc1ccn2c(Nc3ccc4c(c3)OCO4)c(-c3ccco3)nc2c1,106,109
COc1ccc(CN(Cc2ccco2)c2cnc(S(C)(=O)=O)nc2C(=O)Nc2ccc(C)c(Cl)c2)cc1,109,111
CCC(=O)Nc1cccc(OCc2cc(=O)n3cc(C)ccc3n2)c1,107,115
O=C(Nc1ccc(Cl)c(-c2nc3ccccc3o2)c1)c1cccc2c(Cl)cccc12,106,109
O=C(NCc1ccccc1)C(=O)NCC(c1cccs1)S(=O)(=O)c1ccccc1 (stereo not given),104,106
COc1ccc(NC(C)=O)cc1NC(=O)C1(c2cccs2)CCOCC1,105,105
COc1ccc(CCNC(=O)CCc2c(C)nc3cc(-c4ccc(Cl)cc4)nn3c2C)c(OC)c1,106,105
Cc1ccccc1CNC(=O)CCSCc1cnn(-c2ccccc2)c1-n1cccc1,110,118
CCCCN(CC)CCNC(=O)Cn1cnc2sc(C)c(S(=O)(=O)N3CCN(c4ccccc4OC)CC3)c2c1=O,106,107
CCn1ccc2c(OCC(=O)Nc3ccc(OC)cc3OC)cccc2c1=O,102,104
Cc1ccc(C)c(-c2nc(Cn3c(=O)cc(-c4ccccc4)c4c(C)nn(C)c43)c(C)o2)c1,111,110
O=C(Cn1cc(SCc2ccccc2F)c2ccccc21)N1CCCCC1,118,121
CCc1nn(CC(=O)N2CCN(c3cccc(C(F)(F)F)c3)CC2)c(=O)c2cccn12,107,101
Cc1c(C(=O)Nc2ccc(F)cc2F)oc2ccc3c(c12)C(=O)CC(C)(C)O3,111,122
CCOc1c(Cl)cc(CNc2ccc3[nH]c(=O)[nH]c3c2)cc1OC,102,106
CCOC(=O)c1c(-c2ccc(C)cc2)csc1NC(=O)c1nc(SCC)ncc1Cl,116,111
COc1ccc(-n2c(-c3ccc(C)cc3)cc3c2CC(C)(C)CC3=O)cc1Cl,109,109
Cc1cccc(-c2noc(-c3ccccc3OCC(=O)Nc3ccc([N+](=O)[O-])cc3)n2)c1,103,108
Cc1cccc(N2CCN(CCNC(=O)C3COc4ccccc4C3)CC2)c1C (stereo not given),107,91

# Source: PubChem BioAssay (ICCB-Longwood Screening Facility, Harvard Medical School)
